Source: PubChem BioAssay
RGS16-Gao HTS: regulators of human RGS16-Galphao interaction | O15492+P09471 | bead-based flow cytometry RGS16-Galphao binding, fluorescence; actives lie on both sides | binding response (% of control), % at 10 µM | actives 0.38% (n = 220,000);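 active = below 25% or above 175%, edge rows of some plates excepted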;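 note: Galphao activated by GDP with aluminum fluoride before binding; 100% = wells without compound and 0% = beads without RGS; some results beyond the cut were filed as inactive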
Target sequence (O15492 whole entry, looked up): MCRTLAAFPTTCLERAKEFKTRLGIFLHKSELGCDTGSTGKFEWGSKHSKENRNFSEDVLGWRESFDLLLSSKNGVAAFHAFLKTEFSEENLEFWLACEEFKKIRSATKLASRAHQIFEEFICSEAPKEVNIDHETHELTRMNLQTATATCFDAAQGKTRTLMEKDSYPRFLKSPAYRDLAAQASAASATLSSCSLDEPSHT
Target sequence (P09471 whole entry, looked up): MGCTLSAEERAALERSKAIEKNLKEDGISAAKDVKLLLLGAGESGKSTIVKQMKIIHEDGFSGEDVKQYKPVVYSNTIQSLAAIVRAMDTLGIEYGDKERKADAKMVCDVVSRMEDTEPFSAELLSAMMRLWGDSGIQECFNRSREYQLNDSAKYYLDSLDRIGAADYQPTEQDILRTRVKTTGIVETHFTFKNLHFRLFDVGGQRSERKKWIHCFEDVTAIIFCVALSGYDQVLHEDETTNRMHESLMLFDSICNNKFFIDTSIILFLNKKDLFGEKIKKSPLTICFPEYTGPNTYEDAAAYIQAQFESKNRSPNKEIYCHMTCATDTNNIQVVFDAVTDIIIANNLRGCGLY
GALR2 agonist: activates the human galanin receptor 2; GALR2-expressing cells, agonist activation read-out; actives 0.48% (n = 140,000); O43603; activation, %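 (tested at 5 µM)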;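 active = above mean plus 3 SD of all compounds, about 5% in these data, not always enough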;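 note: 0% = vehicle buffer wells and 100% = reference agonist at full effect; tested in CHO reporter cells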
Target sequence (O43603 whole entry, looked up): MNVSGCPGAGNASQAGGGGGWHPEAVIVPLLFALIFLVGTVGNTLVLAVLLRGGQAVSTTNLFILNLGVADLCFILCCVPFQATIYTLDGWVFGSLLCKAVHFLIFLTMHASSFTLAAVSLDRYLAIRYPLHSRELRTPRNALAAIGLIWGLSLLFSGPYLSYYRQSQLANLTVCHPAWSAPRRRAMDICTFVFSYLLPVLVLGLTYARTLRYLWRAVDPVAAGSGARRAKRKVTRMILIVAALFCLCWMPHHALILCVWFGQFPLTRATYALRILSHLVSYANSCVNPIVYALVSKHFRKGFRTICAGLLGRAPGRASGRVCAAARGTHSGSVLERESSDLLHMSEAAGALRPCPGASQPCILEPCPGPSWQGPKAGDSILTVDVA
Insulin prom inh: TRM-6 insulin promoter activity inhibition. TRM-6 cells (human fetal islet line), insulin promoter-eGFP reporter, imaging; reporter expression induced with tamoxifen. inhibition, % at 2 µM. actives 0.9% (n = 130,000). AID 1273;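 active = inhibition above the mean plus 3 SD, with well images judged a real hit on visual review, cut at about 60% in these data, passing the limit was not always enough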
HSV augment: increases HSV replication in cells; actives 0.005% (n = 220,000); maximum fold increase; HSV replication augmentation in cells, fold increase;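 active = peak rise of 1.5-fold or more in the series; tested in PC3 cells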;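 note: first round at 10 µM; read as green reporter fluorescence; hits show the peak of a series up to 25 µM; 1 = signal of infected wells without compound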
PKD1 inh: blocks activity of human protein kinase D1; Q15139; PKD1 kinase fluorescence polarization assay; inhibition, %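 (about 10 µM by stock and volumes)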; actives 0.056% (n = 200,000);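 active = inhibition of 50% or more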;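 note: controls were vehicle for no effect and a reference inhibitor for full effect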
Insulin prom inh cell count: recorded beside Insulin prom inh, whose call it bears; normalized cell count, %; measured here: cell count, toxicity; reference of the scale not given here;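 cells exposed to compound for 48 h; stained nuclei by imaging scaled within each plate; lower means fewer cells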
HSV augment primary fold: further read-out of HSV augment, marked with its call; fold increase; compound at 10 µM; measured here: primary screen fold increase 10 uM; tested in PC3 cells;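 GFP signal in the first replicate; 1 = infected wells without compound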
* hit, by the source's call; i = inactive; / = not tested or not shown.

The first 5 records, to show the layout:
SMILES	RGS16-Gao HTS	GALR2 agonist	Insulin prom inh	Insulin prom inh cell count	HSV augment	HSV augment primary fold	PKD1 inh
CCc1c(C)sc2nc(SCC(=O)Nc3cc(C)on3)n(CCOC)c(=O)c12	99	1.1	-7	41	i	0.84	-2
CCCn1c(C)cc(C)c(C#N)c1=O	103	-1.7	7	108	i	1	2
Cc1c(Cl)cnc(NC(=O)CSc2nnc3ccccn23)c1Cl	100	-2.8	8	93	i	0.96	6
Cc1sc(NC(=O)C2CCCCC2C(=O)O)c(C(N)=O)c1-c1ccc(C(C)(C)C)cc1 (centres undefined)	101	-3.3	38	96	i	0.83	-3
C/C(CC(=O)Nc1cccnc1)=N\NC(=O)C(=O)Nc1cccc(C)c1	102	-2.0	-29	77	i	1.1	-6

Results, repeating the preview:
SMILES	RGS16-Gao HTS	GALR2 agonist	Insulin prom inh	Insulin prom inh cell count	HSV augment	HSV augment primary fold	PKD1 inh
CCc1c(C)sc2nc(SCC(=O)Nc3cc(C)on3)n(CCOC)c(=O)c12	99	1.1	-7	41	i	0.84	-2
CCCn1c(C)cc(C)c(C#N)c1=O	103	-1.7	7	108	i	1	2
Cc1c(Cl)cnc(NC(=O)CSc2nnc3ccccn23)c1Cl	100	-2.8	8	93	i	0.96	6
Cc1sc(NC(=O)C2CCCCC2C(=O)O)c(C(N)=O)c1-c1ccc(C(C)(C)C)cc1 (centres undefined)	101	-3.3	38	96	i	0.83	-3
C/C(CC(=O)Nc1cccnc1)=N\NC(=O)C(=O)Nc1cccc(C)c1	102	-2.0	-29	77	i	1.1	-6
Cn1c(SCc2ccc(F)cc2)nnc1-c1ccccn1	106	0.7	-8	117	i	0.82	-6
CCOC(=O)Cn1cc(/C=N/NC(=O)c2ccc(C#N)cc2F)c2ccccc21	108	-1.4	-24	49	i	1	-6
O=S(=O)(c1ccc(Cl)cc1)N1CCC(N2CCCCCC2)CC1	104	-1.3	/	/	i	0.9	-9
COc1ccccc1NS(=O)(=O)c1cc(NC(=O)c2sccc2C)ccc1N1CCOCC1	88	/	/	/	i	0.77	/
COc1ccc(N(CC(=O)O)S(=O)(=O)c2cccnc2)cc1	106	-1.1	-50	119	i	0.89	-7
CCOC(=O)C1=C(C)N=c2s/c(=C3/C(=O)Nc4ccccc43)c(=O)n2C1c1ccc(C)cc1 (centres undefined)	116	0.1	-14	94	i	0.93	4
COC(=O)c1cn(C(=O)/C=C/c2ccc(OC)c(OC)c2)c2ccccc12	97	/	/	/	i	0.83	-2
CCOc1ccccc1OCCCOc1ccc(C)cc1Cl	102	-0.2	20	81	i	1.1	-10
COc1ccc(-c2noc(C3CCCN(C(=O)CCc4ccccc4)C3)n2)cc1 (centres undefined)	102	0.1	-31	212	i	1	-2
Cc1ccnc(SCCn2c(N3CCOCC3)nc3c2c(=O)n(C)c(=O)n3C)n1	/	-1.2	-125	118	/	/	-2

Random excerpt: 2 records from the list
SMILES	RGS16-Gao HTS	GALR2 agonist	Insulin prom inh	Insulin prom inh cell count	HSV augment	HSV augment primary fold	PKD1 inh
COC(=O)c1cn(C(=O)/C=C/c2ccc(OC)c(OC)c2)c2ccccc12	97	/	/	/	i	0.83	-2
O=S(=O)(c1ccc(Cl)cc1)N1CCC(N2CCCCCC2)CC1	104	-1.3	/	/	i	0.9	-9

New compounds follow.
SMILES	RGS16-Gao HTS	GALR2 agonist	Insulin prom inh	Insulin prom inh cell count	HSV augment	HSV augment primary fold	PKD1 inh
CN(C)S(=O)(=O)c1ccc(S(=O)(=O)N(CC(=O)Nc2ccccc2)Cc2ccco2)cc1	105	-0.3	-13	100	i	1	9
Cn1c(CCC(=O)OCC(=O)NCc2ccccc2Cl)nc(=O)c2ccccc21	107	/	-45	122	i	1	-6
CCC1=NN(C(=O)C(=O)NCCc2ccccc2)C(O)(C(F)(F)F)C1 (centres undefined)	115	-0.7	20	118	i	1	-2
C=CCN1C2CCCC1CC(NC(=O)Nc1cc(C)cc(C)c1)C2 (centres undefined)	102	/	/	/	i	1	3
Cc1nc2nc(Cc3ccccc3)[nH]n2c(=O)c1Cc1ccccc1	100	-2.1	48	136	i	0.9	4
CC(C)=C1C(=O)NN(c2ccc(F)c(Cl)c2)C1=O	103	-3.7	19	141	i	1.5	1
O=c1[nH]c(CN2CCOCC2)nc2cc(Cl)ccc12	108	/	-38	90	i	0.99	-4
Nc1ccc(C(=O)OCCCc2nc3cc4ccccc4cc3[nH]2)cc1	104	/	/	/	i	0.83	/
NNC(=O)Cn1c(-c2nonc2N)nc2ccccc21	102	/	/	/	i	0.9	-3
COc1ccc(S(=O)(=O)N(C)c2ccc(C(=O)N3CCOCC3)cc2)cc1OC	107	-2.4	20	123	i	0.9	-2
COc1cc(-c2nc(S(=O)(=O)c3ccc(C)cc3)c(N(C)C)o2)cc(OC)c1OC	102	-0.5	-23	97	i	1	-4
COc1ccc(NS(=O)(=O)c2ccc3c(c2)CCC(=O)N3)c(OC)c1	104	-4.0	19	105	i	0.97	-6
C/C=C/C(=O)N1c2ccccc2C(C)=CC1(C)C	112	/	0	86	i	0.73	-3
C=CCNc1nc(N2CCCC2)nc2ccccc12	101	-3.1	79*	104*	/	/	0
c1n[nH]c(NCc2ccc3c(c2)OCO3)n1	81	-0.9	-56	166	i	0.9	2
Cc1ccc(Nc2ncnc(N)n2)cc1	108	/	/	/	i	0.94	2
CC12CCC(C(=O)Nc3ccccc3Br)(C/C1=N\O)C2(C)C (centres undefined)	102	-0.8	-11	215	i	0.93	-10
Cc1ccc(NC(=S)NCC(C)CSc2ccc(Cl)cc2)cc1 (centres undefined)	100	/	/	/	i	0.99	4
O=C(Cc1ccc([N+](=O)[O-])cc1)N1N=C2CCCCC2C1(O)C(F)(F)F (centres undefined)	102	/	/	/	i	1.1	/
Cn1c(=O)c2c(nc(SCC(=O)c3cccs3)n2Cc2ccc(F)cc2)n(C)c1=O	103	-3.0	/	/	i	0.81	-3
COCCC(=O)NC12CC3CC(CC(C3)C1)C2	98	-1.3	-17	105	i	0.87	-9
CCn1c(=N)n(CC(=O)c2ccc(OC)c(OC)c2)c2ccccc21	114	-2.0	0	59	i	0.67	-5
Cc1cc(C)n2c(SCc3ccc(Br)cc3)nnc2n1	105	/	/	/	i	1.1	/
COc1ccccc1N1CCN(C(c2cccs2)C(C)NS(=O)(=O)c2ccccc2)CC1 (centres undefined)	100	0.2	-129	63	i	1.3	11
CCCC1OC23CCCCC2C(C#N)(C(=N)O3)C1(C#N)C#N (centres undefined)	101	1.6	43	78	i	0.82	-5
Cc1cccc(C(=O)Nc2cc(C)ccc2NC(=O)COc2ccccc2)c1	100	-2.0	-8	125	i	0.88	-6
O=C1CC(Cc2ccc(Cl)cc2)C(=O)N1c1ccccn1 (centres undefined)	125	-1.5	14	102	/	/	-8
O=C(CN(Cc1cccs1)C(=O)CNS(=O)(=O)c1ccc(Cl)cc1)NCC1CCCO1 (centres undefined)	102	/	/	/	i	1.1	1
Nc1nnc(-c2cccc([N+](=O)[O-])c2)s1	109	/	-86	80	i	0.94	2
CCOC(=O)c1cnn(-c2cc(Oc3ccccc3)ncn2)c1N	87	-0.6	/	/	i	0.92	13
CCn1c2ccccc2c2cc(NC(=O)COC(=O)c3ccccc3Br)ccc21	102	-0.7	-40	101	i	0.95	-15
COc1ccc(CCN2C(=O)CC(NNC(=O)c3cccc(O)c3)C2=O)cc1 (centres undefined)	99	-1.6	16	172	i	0.89	-11
CN(C)C(=O)N1CCC(C(=O)N2CCCC(C(=O)c3cccc4ccccc34)C2)CC1 (centres undefined)	98	/	/	/	i	0.93	-4
CC1CCCCN1C(=O)c1ccc(S(=O)(=O)N2CCCCC2C)cc1 (centres undefined)	104	-0.1	/	/	i	0.91	-9
Cn1c(=O)[nH]c(=O)c2c1nc(SCCN1CCCCC1)n2CCCc1ccccc1	61	-1.6	/	/	i	1	-5
CCOC(=O)CC(=O)CSc1ccc2nnc(-c3cccc(F)c3)n2n1	95	-2.0	/	/	i	0.87	-3
CC(C)n1c(SCC(=O)Nc2ccccc2)nc2c1c(=O)[nH]c(=O)n2C	120	/	/	/	i	1	/
CC1(c2ccc(Cl)cc2)NC(=O)N(CC(=O)N2CCCC2)C1=O (centres undefined)	101	-0.3	/	/	i	0.91	8
Cc1cc(C)nc(N/N=C/C2=C(O)CC(c3ccc(F)cc3)CC2=O)n1 (centres undefined)	103	/	/	/	i	0.84	/
CCOC(=O)c1cccc(NC(=O)Cn2c(CC(=O)N3CCCC3)nc3ccccc32)c1	75	0.1	-3	148	i	0.92	10
CC(C)CNC(=O)c1cc2nc(C3CC3)cc(C(F)(F)F)n2n1	/	-2.8	-27	70	i	0.96	3
Cc1ccc(-c2cc(N)n(-c3ccc(C)cc3)n2)cc1	99	-0.9	/	/	i	0.94	-7
CCN(CC)CCNC(=O)Cn1nc(-c2ccc(C)cc2)ccc1=O	106	-0.2	-38	83	i	0.82	-14
CC(C)C(C)NC(=O)CSc1nnc(-c2c[nH]c3ccccc23)o1 (centres undefined)	98	/	/	/	i	1.3	5
O=C(Nc1ccc(Cl)cc1)NC1CCCCNC1=O (centres undefined)	101	/	/	/	i	1.4	/
CCCCNC(=O)Cn1c2c(c(-c3ccccc3Cl)cc1=O)CCC2	101	-1.6	/	/	i	1.1	-16
C=CCc1cc(Cl)ccc1OCCN(C)C	109	-1.7	-23	118	i	0.97	17
O=C(NC1CCCCC1)C(=O)N(Cc1cccnc1)C(C(=O)NCc1ccco1)c1ccccc1 (centres undefined)	112	/	-21	98	i	0.94	1
COC(=O)c1sccc1NC(=S)Nc1ccc(F)cc1	116	0.0	-26	71	i	1.1	7
O=C(Nc1nccs1)C1CC(=O)N(c2ccccc2Cl)C1 (centres undefined)	99	-1.8	-43	8	i	1.1	-4
CCNC(=S)N(CCc1c(C)[nH]c2ccc(C)cc12)Cc1cccs1	104	/	3	59	i	0.94	-8
COC(=O)c1ccc(-c2sc3nc(N4CCOCC4)c4c(c3c2N)CC(C)(C)OC4)o1	96	1.8	3	108	i	1	-7
Cc1ccc2cc(CCNC(=O)C(C)C)c(=O)[nH]c2c1C	109	-0.4	/	/	i	1	2
COCCCN1C(=O)c2ccc(C(=O)NCc3ccco3)cc2C1=O	109	-1.3	-21	115	i	0.92	-5
O=C(COC(=O)C1CCC(=O)N1)Nc1cc(Cl)ccc1Cl (centres undefined)	101	-1.0	/	/	i	1	-1
CCCCn1c(CN(C)Cc2ccccc2)nc2c1c(=O)n(C)c(=O)n2C	98	-0.6	71*	93*	i	0.87	-5
CC1(O)N(Cc2ccccc2)C(=O)OC12CCCCC2 (centres undefined)	100	-1.7	/	/	i	0.97	4
O=C(COC(=O)CN=C1NS(=O)(=O)c2ccccc21)Nc1ccccc1OC(F)F	100	/	/	/	i	1	-7
O=C(NCC1CCCO1)c1ccc2c(=O)n(CC3CCCO3)c(=S)[nH]c2c1 (centres undefined)	104	-1.1	38	101	i	0.88	-1
OCC1OC(n2nnc3ccccc32)C(O)C(O)C1O (centres undefined)	95	-1.9	/	/	i	1.1	-1

(further entries)
SMILES	RGS16-Gao HTS	GALR2 agonist	Insulin prom inh	Insulin prom inh cell count	HSV augment	HSV augment primary fold	PKD1 inh
O=C(CNC(=O)c1cccs1)NCCN1CCC(Cc2ccccc2)CC1	107	-0.3	7	114	i	0.91	-4
CC1(C)Cc2c(c(-c3ccco3)[nH]c(=O)c2C#N)CO1	101	2.9	33	136	i	1.1	-5
O=C(Cc1ccc(Br)cc1)Nc1ccccc1Sc1ccccc1	99	-1.0	-17	76	i	1	-6
CCCN(CCC)CCCNC(=O)c1cc2c(=O)n(C)c3ccccc3c2n1C	105	-2.5	/	/	i	1.1	-4
CS(=O)(=O)c1nc(-c2ccc(Br)cc2)n[nH]1	98	/	25	95	i	0.91	-4
Cc1ccc(NC(=O)CSc2nnc(CNC(=O)c3cccs3)o2)c(C)c1	100	/	/	/	i	0.99	0
Cc1[nH]c2ccccc2c1C(=O)COC(=O)c1ccc([N+](=O)[O-])s1	114	/	45	41	i	0.7	-1
CC1CN(C(=O)c2ccc(COCC(F)(F)F)o2)CC(C)O1 (centres undefined)	104	-1.5	29	96	i	0.89	-3
Cc1cccc(OC(=O)Cn2c(C(F)(F)F)nc3ccccc32)c1	130	-2.5	/	/	/	/	-1
C=CCn1c(SCC#N)nc2c(c1=O)C(C)(C)Cc1ccccc1-2	38	-1.1	/	/	/	/	-1
C/C(CC(=O)C(F)(F)F)=N\NC(=O)/C(C#N)=C/N(C)C	102	/	/	/	i	1	-4
CCCc1nc(SCC(=O)Nc2nnc(SCC)s2)c2c(=O)n(C)c(=O)n(C)c2n1	53	/	/	/	i	0.74	2
CC(=O)c1c(C)nc(-c2ccc(OCC(=O)Nc3ccc(F)cc3)cc2)n1O	102	/	29	123	i	0.93	1
